UCH37 DUB inh = inhibitors of human deubiquitinating enzyme UCH37. purified proteasome/UCH37, Ub-AMC cleavage fluorescence. actives 0.33% (n = 330,000). AID 588478. inhibition, % (concentration not given with the values). Q9Y5K5;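 active means mean of two replicates above 20%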;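 further: 0% = compound-free wells with enzyme and 100% = wells lacking proteasome; stock transfer was 100 nL into about 20 µL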
Target sequence (Q9Y5K5 whole entry, looked up): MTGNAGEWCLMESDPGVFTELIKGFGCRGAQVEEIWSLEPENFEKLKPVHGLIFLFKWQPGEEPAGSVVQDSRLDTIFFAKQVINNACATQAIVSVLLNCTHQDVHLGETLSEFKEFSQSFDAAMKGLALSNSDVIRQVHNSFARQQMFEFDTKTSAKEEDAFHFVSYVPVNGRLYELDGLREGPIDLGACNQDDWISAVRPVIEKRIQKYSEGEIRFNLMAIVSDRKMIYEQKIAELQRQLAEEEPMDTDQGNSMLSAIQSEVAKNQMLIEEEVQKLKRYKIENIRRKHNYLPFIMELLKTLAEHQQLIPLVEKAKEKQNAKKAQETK
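Assay system: Proteasome-bound UCH37. Buffer or medium: pH 7.4 Tris-HCl (50 mM) with ovalbumin, ATP-MgCl2, DTT. Incubation: 30 min preincubation with enzyme, 25 min cleavage at room temperature. Measured by: fluorescence, ex 355 nm, em 460 nm. Read-out basis: percent inhibition. Control set: wells without proteasome as full block, compound-free enzyme plus substrate as uninhibited.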
Ecoli growth = E. coli growth inhibition | Escherichia coli growth, OD600, 23 h; stronger effect = lower value | OD600 absorbance (test concentration not listed) | actives 0.21% (n = 330,000);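 active means OD600 absorbance below the run mean of sample wells minus 3.6 SD, in any replicate, cut at about 0.56 in these data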;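 further: stock transfer was 300 nL into about 60 µL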
HNF4A DNA FP = change in binding of human HNF4 alpha to DNA; activity change, % at 10 µM; actives 0.3% (n = 360,000); AID 1224865; HNF4a-FITC DNA binding, fluorescence polarization, 1 h; in the data active means activity change above about 30%, passing the limit was not always enough;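 further: controls were the assay level and a saturating level of protein; the project sought stronger binding though the title names inhibitors; some compounds called inactive have numbers as strong as hits; positive values seem to mean higher polarization but the record does not say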
Target sequence (P41235 whole entry, looked up): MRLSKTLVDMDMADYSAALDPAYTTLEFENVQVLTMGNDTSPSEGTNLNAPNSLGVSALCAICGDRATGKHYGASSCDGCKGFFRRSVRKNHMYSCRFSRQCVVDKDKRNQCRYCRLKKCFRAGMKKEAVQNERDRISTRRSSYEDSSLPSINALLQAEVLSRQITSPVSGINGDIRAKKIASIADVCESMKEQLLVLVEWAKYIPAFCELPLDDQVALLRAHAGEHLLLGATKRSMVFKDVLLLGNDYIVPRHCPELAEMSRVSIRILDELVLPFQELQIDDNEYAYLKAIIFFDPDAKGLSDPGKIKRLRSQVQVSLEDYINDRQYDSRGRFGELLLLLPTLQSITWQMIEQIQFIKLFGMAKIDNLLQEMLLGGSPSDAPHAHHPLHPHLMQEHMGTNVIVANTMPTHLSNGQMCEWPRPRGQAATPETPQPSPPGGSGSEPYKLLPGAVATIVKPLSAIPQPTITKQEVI
RanGTP-Imp inh = inhibitors of RanGTP-importin-beta interaction, primary screen, biochemical, FRET, CFP-Ran, YFP-importin-beta, homogeneous; cell-free CFP-Ran/YFP-importin-beta FRET ratio; inhibition, % (no concentration beside the values); actives 1.1% (n = 300,000);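 active means most replicates above 15%; inconclusive means exactly half above 15%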;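 further: 0% = DMSO wells and 100% = Ran loaded with GDP instead of GTP; wells of about 40 µL received 100 nL stock; the first replicate is given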
Vif A3G = HIV-1 Vif–A3G interaction blockers – biochemical, TR-FRET, GST-Vif 1-94, biotin-A3G peptide, dose response retest, primary screen (AID 1117319) | TR-FRET GST-Vif / biotin-A3G peptide binding; higher % means a stronger effect; test concentration not given here; strong numbers were not always called active | inhibition, %, or IC50 in µM where a hit was titrated | actives 0.57% (n = 260,000);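 active means above the screen mean plus three standard deviations and confirmed in dose response; inconclusive means results disagree or hit not tested in dose response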;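 further: Vif residues 1-94 fused to GST binding biotinylated APOBEC3G peptide 110-148; 0% = full assay without inhibitor and 100% = GST in place of GST-Vif; retest series ran down from 100 µM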
MLL AF4-AF9 inh = MLL-AF4/AF9 protein interaction inhibition. P42568. AlphaScreen, biotin-AF4 peptide binding to FLAG-AF9. inhibition, % at 10 µM. actives 0.47% (n = 350,000). AID 651704;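 active means every replicate reaching a set inhibition limit, whatever the replicate mean, cut at about 25% in these data; inconclusive means mean inhibition reaches that limit but some replicates miss it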;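 further: 0% = plate neutral control median and 100% = total signal loss; the record names both 10 and 1 µM as test concentration; the first replicate is given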
FGF22 binding = FGF22 (human) thermal shift binding; Q9HCT0; recombinant FGF22 thermal shift, SYPRO orange fluorescence; percent of sucrose octasulfate shift, DMSO zero; calls only at 9.99 µM; actives 1.5% (n = 340,000); AID 651658;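 active means melting point raised past a set limit in the mean and every replicate; inconclusive means no clear call; three in four hits are not shown here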
Target sequence (Q9HCT0 whole entry, looked up): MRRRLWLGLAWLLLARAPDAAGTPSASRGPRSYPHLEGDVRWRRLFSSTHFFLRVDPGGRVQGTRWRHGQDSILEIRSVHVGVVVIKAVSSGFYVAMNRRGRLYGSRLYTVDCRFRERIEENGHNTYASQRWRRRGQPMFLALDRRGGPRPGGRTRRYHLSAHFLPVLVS
An asterisk follows results filed as active; i = inactive; ? = inconclusive; / = no result given; & = joins results of further samples. An excerpt. The share of hits here may be higher or lower than overall.

SMILES,UCH37 DUB inh,Ecoli growth,HNF4A DNA FP,RanGTP-Imp inh,Vif A3G,MLL AF4-AF9 inh,FGF22 binding
COc1cc(NC(=O)COc2ccccc2Cl)ccc1NC(=O)c1cccs1,-132,0.7,-1.5,-0.4,/,-5.4,i
Cc1ccc(CSc2nnc(-c3ccncc3)n2C)cc1,4.0,0.69,-1.0,-5.2,-5%,/,/
C=CCSc1nc2[nH]ncc2c(=O)[nH]1,3.0,0.74,0.9,1.9,-1%,/,/
O=C(OCC#CCSc1nnc(-c2ccc([N+](=O)[O-])cc2)o1)c1cccs1,3.9,0.72,-1.4,4.1,?,/,/
O=C(NCCN1CCOCC1)C1CCN(Cc2ccccc2O)CC1,2.4,0.7,2.9,-2.0,13%,/,/
O=C(CCSc1ccccc1)NCCSCc1ccccc1,1.3,0.68,-0.8,1.6,/,-1.6,i
O=C(CNS(=O)(=O)c1ccccc1Br)OCC(=O)N1CCc2ccccc21,1.1,0.65,1.0,2.7,4%,/,/
NC(=O)c1ccc(NC(=O)c2ccc(CN3CCOCC3)cc2)cc1,2.3,0.68,-3.0,1.2,-2%,/,/
COCCNc1nc(NCCN2CCNC2=O)c2sc(-c3ccccc3)cc2n1,/,/,-0.3,/,/,2.3,i
CCCCn1c(N)c(N(CC(C)C)C(=O)CCCc2cccs2)c(=O)[nH]c1=O,1.6,0.67,5.6,-1.4,-4%,1.9,i

Ordered by molar mass (largest number first): some entries from above
SMILES,UCH37 DUB inh,Ecoli growth,HNF4A DNA FP,RanGTP-Imp inh,Vif A3G,MLL AF4-AF9 inh,FGF22 binding
CCCCn1c(N)c(N(CC(C)C)C(=O)CCCc2cccs2)c(=O)[nH]c1=O,1.6,0.67,5.6,-1.4,-4%,1.9,i
O=C(OCC#CCSc1nnc(-c2ccc([N+](=O)[O-])cc2)o1)c1cccs1,3.9,0.72,-1.4,4.1,?,/,/
O=C(NCCN1CCOCC1)C1CCN(Cc2ccccc2O)CC1,2.4,0.7,2.9,-2.0,13%,/,/

(more compounds)
SMILES,UCH37 DUB inh,Ecoli growth,HNF4A DNA FP,RanGTP-Imp inh,Vif A3G,MLL AF4-AF9 inh,FGF22 binding
CC(=O)Nc1ccc(C(=O)COC(=O)c2ccco2)c(F)c1,2.9,0.68,-3.4,/,11%,2.5,i
O=C(COC(=O)COc1ccccc1)NCCC1=CCCCC1,/,/,-1.6,/,-1%,0.6,i
CC1(C)CN(Cc2cccnc2)C(=O)[C@H]1CC(=O)Nc1ccc(Br)cc1,/,/,2.9,/,/,0.8,i
COc1ccc2c(c1)N1CCN=C1N2C,3.2,0.73,-4.5,2.8,20%,/,/
CC1CCCCN1C(=O)COC(=O)c1cccc(NS(=O)(=O)c2ccccc2)c1 (stereo unspecified),5.9,0.66,1.6,-0.2,3%,3.8,i
CC1(C)Oc2ccc3ccc(=O)oc3c2[C@H](O)[C@H]1O,3.1,0.79,-3.7,/,/,-5.2,i
Cc1ccc(NN2C(=O)C=CC2=O)cc1,2.0,/,5.2,-0.2,/,/,/
O=C(NCCOc1ccccc1F)c1ccccc1SCc1ccc(F)cc1,2.3,/,-1.7,1.9,7%,/,/
Clc1ccc(CCNc2nc3ccccc3n3nnnc23)cc1,-41,0.72,8.1,?,-3%,1.3,i
CCc1ccc(NC(=O)c2cnc3scc(C)n3c2=O)cc1,-71,0.71,-0.4,2.4,5%,-2.7,i
Cc1ccc(CNC(=O)c2cc3c(s2)CS(=O)(=O)C3)cc1,2.3,0.69,1.0,4.4,/,-4.2,i
CC(=O)Nc1cccc(NC(=O)CSc2nccn2Cc2ccco2)c1,4.2,0.71,1.6,0.2,/,-5.9,i
CCCCOc1ccc(N=Cc2cccs2)cc1,-0.2,0.73,0.8,2.9,12%,2.7,i
COc1ccc(-n2c(SCC(=O)Nc3nc(C)cs3)nnc2-c2ccoc2C)cc1,5.1,0.72,-0.7,7.0,/,/,/
O=C(Cc1ccc(Cl)cc1Cl)OCC(=O)N1CCCCC1,0.2,0.64,1.7,1.6,-1%,-0.4,i
COc1ccc(-c2c(C)oc3ccc(C)cc23)cc1,2.7,0.71,-1.4,-1.2,-3%,/,/
O=C(CCN1CCN(Cc2ccccc2)CC1)NNC(=O)c1cc2ccccc2o1,5.7,0.68,0.1,/,/,1.4,i
CCCCCCC(=O)Nc1nc(C)c(-c2csc(Nc3cc(Cl)ccc3C)n2)s1,/,/,7.3,3.9,2%,6.1,i
O=C(NNc1nc(-c2ccccc2)c2cc(Br)ccc2n1)c1ccc(S(=O)(=O)N2CCCCC2)cc1,0.0,0.72,-4.9,-6.5,?,/,/
C=CCn1c(=O)c(C(=O)NC(C)c2ccccc2)c(O)c2ccccc21 (stereo unspecified),2.4,0.66,-2.1,1.9,/,-4.7,i
CC(C)CCN1C(=O)c2ccc(C(=O)OCn3nnc4ccccc4c3=O)cc2C1=O,0.6,0.7,1.4,6.4,-2%,/,/
O=S(=O)(c1ccc(Cl)cc1)N1CCC(N2CCCCCC2)CC1,0.8,0.64,4.1,0.0,6%,/,/
Cc1ccc2c(C)cc(=S)[nH]c2c1,3.6,0.67,-1.2,-1.4,/,-1.1,i
CC(=O)Nc1ccc(CNC(=O)C[N+]2(C)CCOCC2)cc1,0.6,0.65,1.3,-2.0,/,-1.1,i
COc1ccc(N2CCN(C(=O)CSc3nnc4c(C)cc5cc(C)ccc5n34)CC2)cc1,0.2,0.68,3.1,9.0,2%&21%,/,/
CC(C)(Oc1ccc(Cl)cc1)C(=O)NNC(=O)c1ccc(Br)o1,1.3,0.64,2.1,/,/,-2.8,i
Cc1ccc(Oc2nc(CN3CCOCC3)nc3sc4c(c23)CCC(C)C4)cc1C (stereo unspecified),3.6,0.69,-0.1,-3.2,/,1.4,i
CN1C(=O)NC(c2cccc([N+](=O)[O-])c2)C2=C1CC(C)(C)CC2=O (stereo unspecified),4.4,0.67,0.8,-5.4,1%,0.2,i
COc1cc2nc(SCc3ccc(F)cc3)n(Cc3cccs3)c(=N)c2cc1OC,-2.0,0.7,1.7,-2.5,5%,/,/
COc1ccc(C(=O)Nc2ccccc2N2CCCC2)cc1,0.7,0.61,3.8,5.7,6%,3.9,i
CCOC(=O)C1CCN(S(=O)(=O)c2c(C)[nH]c(=O)[nH]c2=O)CC1,3.7,0.74,4.6,-2.0,8%,/,/
Brc1c(CSc2nncn2-c2ccccc2)nc2sccn12,0.8,0.71,-3.1,-3.8,1%,/,/
CCOC(=O)NCc1ccc(CNC(=O)OCC)cc1,-5.0,0.65,3.3,1.9,-2%,/,/
COc1ccc(Cn2c(N)c(C#N)c3nc4ccccc4nc32)cc1OC,-61,0.74,3.4,11,22%,/,/
Cc1cccc(OCCOC(=O)C2CCN(S(=O)(=O)c3cccs3)CC2)c1,-0.2,0.74,-1.7,0.2,3%,/,/
O=c1[nH]cc(S(=O)(=O)c2ccccc2)[nH]1,-1.3,0.67,0.1,/,9%,2.0,i
CCCc1ccc(C(=O)NNc2ccc(F)cc2)cc1,/,/,3.4,-0.2,7%,-1.1,i
COc1ccc(C(=O)Nc2ccc(NC(=O)c3cccs3)c(OC)c2)cc1Cl,-191,0.66,-2.3,/,/,-4.9,i
CCOc1ccc2[nH]c3c(NCCC(C)C)ncnc3c2c1,-21,0.5*,-0.2,3.7,-7%,1.2,i
Cc1ccn2c(-c3n[nH]c(=S)n3Cc3ccccc3)c(C)nc2c1,/,/,-0.8,-0.4,-2%,/,/
CCc1nc2ccc(C(=O)Nc3cccc(C(C)=O)c3)cc2nc1CC,1.1,0.64,1.6,-0.1,/,/,/
CC(=O)Nc1ccc(NC(=O)COC(=O)c2c(-c3ccccc3)noc2C)cc1,2.8,0.69,-2.9,/,/,0.2,i
COC(=O)/C(=C(/F)Sc1cc(C)c(O)c(C)c1)C(F)(F)F,6.6,0.66,-1.6,2.7,1%,/,/
COc1ccccc1NC(=O)c1cc(S(=O)(=O)N2CCc3ccccc32)ccc1F,-10,0.71,-2.8,-3.4,-3%,-2.2,i
O=C(/C=C/c1c(F)cccc1Cl)Nc1cccnc1,0.5,0.67,-0.2,2.1,-1%,2.5,i
CC(C)Cc1nnc(NC(=O)CCC(=O)Nc2ccccc2F)s1,4.8,0.63,3.1,-3.5,14%,-5.3,i
CN1CCN(C2OC(=O)c3ccccc32)CC1 (stereo unspecified),1.6,0.69,-1.1,5.0,-5%,/,/
NC(=O)c1ncn([C@@H]2O[C@H](CNCc3cc(Br)ccc3OCc3ccccc3)[C@@H](O)[C@H]2O)n1,/,/,-2.5,/,0%,-2.2,i
O=C(CSc1ccc2nnc(-c3ccc(Cl)cc3)n2n1)N1CCCC1,-5.4,0.72,2.0,5.0,/,8.2,i
COc1ccc(N2CCN(CCCn3c(=S)[nH]c4ccccc4c3=O)CC2)cc1,4.4,0.66,1.4,2.0,/,-1.2,i

Remaining list, next part.
SMILES,UCH37 DUB inh,Ecoli growth,HNF4A DNA FP,RanGTP-Imp inh,Vif A3G,MLL AF4-AF9 inh,FGF22 binding
COc1ccc(OC)c(-c2cc(-c3cccnc3)nc(N)c2C#N)c1,/,/,-3.7,2.4,-108%,-5.4,i
COc1ccc(OC)c(N(CC(=O)Nc2ccc3c(c2)OCCO3)S(C)(=O)=O)c1,-4.4,0.72,0.7,0.2,1%,/,/
CCN(CC)C(=O)COc1cccc2ccccc12,4.9,0.71,-0.1,1.8,1%,/,/
Cc1cc(C)c2nc(C)cc(Nc3ccc(C(=O)N(C)C)cc3)c2c1,4.6,0.68,/,3.2,-6%,/,/
CS(=O)(=O)N(CC(=O)Nc1ccccc1C(=O)N1CCCC1)c1cccc([N+](=O)[O-])c1,2.3,0.63,-0.6,2.9,2%,-3.1,i
C/C(=N\NC(=O)CCc1ccc(S(=O)(=O)N2CCOCC2)cc1)c1ccc(Br)cc1,/,/,1.9,-2.5,7%,-1.9,i
OCCC1CN(Cc2nc3c(s2)CCCC3)CCN1Cc1ccsc1 (stereo unspecified),4.3,0.72,-0.2,-5.3,/,0.8,i
Cc1onc(-c2ccccc2)c1NC(=O)N(Cc1ccccc1)C(C)C,-0.3,0.64,3.2,-2.7,0%,-1.5,i
COCCNC(=O)C1CC2Cn3c(nc4cc5ccccc5cc43)C2N1C (stereo unspecified),1.4,0.69,3.0,2.4,6%,-6.9,i
CC1Cc2cc(/C(O)=C3/C(=O)C(=O)N(CCCN(C)C)C3c3ccncc3)ccc2O1 (stereo unspecified),6.2,0.77,-0.3,2.0,-9%&1%,/,/
COc1cc(NS(=O)(=O)c2ccc(NC(=O)c3ccc(Cl)cc3Cl)cc2)ncn1,1.4,0.7,-0.6,-1.6,/,-0.9,i
COc1ccc(-c2cc(=O)oc3c(C)c(OC(C)C(=O)Nc4ccc(CN5CCOCC5)cc4)ccc23)cc1 (stereo unspecified),-13,0.72,1.0,0.4,-8%,2.8,i
c1ccc(-n2ncc3c2ncn2nc(-c4ccco4)nc32)cc1,-5.9,0.71,5.2,-1.6,3%,/,/
COc1ccc2cc(C(=O)CS(=O)(=O)c3ccccc3)c(=O)oc2c1,-438,0.7,0.1,-23,/,-4.3,i
COc1ccc(CNC(=O)c2sc(=S)n(-c3ccccc3)c2N)cc1,3.4,0.65,0.2,0.8,-9%,2.5,i
Cc1ccc(-n2nnnc2SCn2nnc3ccccc3c2=O)cc1,-0.6,0.76,0.9,/,>100µM*,/,/
Clc1ccc(-n2ncc3c(NCc4ccc5c(c4)OCO5)ncnc32)cc1,-8.9,0.74,-3.0,1.5,-5%,/,/
CCOC(=O)CSc1nc2c(c(=O)n1-c1ccc(OC)cc1)SCC2,6.1,0.74,1.1,-0.1,9%,-5.6,i
CCNC(=O)c1ccc2c(c1)S(=O)(=O)c1ccccc1C2=O,0.8,0.68,-2.5,3.5,5%,/,/
